High-throughput results deposited in PubChem BioAssay by Johns Hopkins Ion Channel Center.
KCNQ2 inh – KCNQ2 channel blockers in CHO-K1 cells – cell-based, FluxOR thallium flux, B-score, primary screen (AID 2156); actives 1.1% (n = 310,000); B-score at 10 µM; 20 min; hits give low values; only compounds with negative scores are shown here; some inactives read as strong as hits; O88943;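 active = fluorescence ratio B-score at most minus 3 library SDs, with starting brightness B-score within 2 library SDs, cut at about -5.5 in these data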
Target sequence (O88943 whole entry, looked up): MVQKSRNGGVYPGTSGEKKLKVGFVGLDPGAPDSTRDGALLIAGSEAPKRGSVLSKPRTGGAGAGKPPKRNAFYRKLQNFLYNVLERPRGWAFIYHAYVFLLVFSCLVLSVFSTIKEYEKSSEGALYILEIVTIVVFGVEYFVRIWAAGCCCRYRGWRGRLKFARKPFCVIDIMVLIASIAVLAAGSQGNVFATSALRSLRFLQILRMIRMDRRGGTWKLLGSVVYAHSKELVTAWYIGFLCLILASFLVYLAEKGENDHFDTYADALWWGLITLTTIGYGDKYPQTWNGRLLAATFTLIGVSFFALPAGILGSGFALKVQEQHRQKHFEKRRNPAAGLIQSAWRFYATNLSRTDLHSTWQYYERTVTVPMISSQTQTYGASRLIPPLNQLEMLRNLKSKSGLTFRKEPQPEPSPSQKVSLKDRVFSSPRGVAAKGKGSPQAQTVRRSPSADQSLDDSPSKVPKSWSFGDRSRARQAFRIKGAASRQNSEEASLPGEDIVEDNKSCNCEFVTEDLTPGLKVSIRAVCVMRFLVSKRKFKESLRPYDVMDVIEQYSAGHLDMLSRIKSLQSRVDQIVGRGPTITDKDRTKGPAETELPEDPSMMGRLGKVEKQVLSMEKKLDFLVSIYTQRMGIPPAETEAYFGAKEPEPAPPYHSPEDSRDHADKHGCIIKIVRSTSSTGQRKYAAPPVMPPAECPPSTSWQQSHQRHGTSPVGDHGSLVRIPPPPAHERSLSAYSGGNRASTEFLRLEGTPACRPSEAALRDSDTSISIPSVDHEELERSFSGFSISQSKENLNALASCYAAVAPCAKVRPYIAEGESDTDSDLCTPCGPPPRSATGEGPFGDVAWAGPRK
KCNQ2 inh baseline – second read-out of KCNQ2 inh, no call of its own (marks repeat the call); B-score; measured here: initial fluorescence intensity artifact check;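 brightness before thallium and not channel activity; 0 = typical well and far values either way flag optical interference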
Numbers without * were called inactive; i = inactive.

Results follow in this order: KCNQ2 inh baseline	KCNQ2 inh
1: CCOC(=O)c1cc(S(=O)(=O)N2CCOCC2)cn1C
  -0.03	i
2: CC(=O)Nc1ccc(NC(=O)C2CCN(C(=O)c3cccs3)CC2)cc1
  -0.5	i
3: NC(=O)COC(=O)c1oc2ccccc2c1CSc1ccc(Cl)cc1
  1.2	i
4: CCCOc1ccc(N2C(=O)C3ON(c4ccccc4)C(CCC)C3C2=O)cc1 (stereo not drawn)
  -1.5	i
5: CCOc1ccccc1NS(=O)(=O)N(C)C
  -0.93	i
6: O=C(NC1CCCCC1)c1cc(-c2ccc(F)cc2)on1
  -0.05	i
7: COc1ccc(-c2c(C#N)c(C)nc3c2C(=O)c2ccccc2-3)cc1
  -0.02	i
8: O=C(Nc1ccc2c(c1)OCO2)C1CCCN1C(=O)Nc1ccccc1 (stereo not drawn)
  0.12	i
9: Cc1cccc(N2CCc3c2nc2ccc(Br)cc2c3N)c1
  -0.46	i
10: O=C(CC1C(=O)NCCN1C(=O)Nc1ccccc1)Nc1cc(Cl)ccc1Cl (stereo not drawn)
  1.3	i
11: CCN(CC)c1nc(C#N)cc(-c2ccc(OC)cc2)n1
  -1.1	i
12: CCCn1c(C)cc(=O)c2cc(NC(=O)c3ccccn3)ccc21
  -0.37	i
13: O=C(NCc1ccccc1Cl)C1CCCO1 (stereo not drawn)
  -0.15	i
14: CCC(C)NC(=O)c1ccccc1NC(=O)c1ccc(CSc2ccc(C)cc2)cc1 (stereo not drawn)
  -0.91	i
15: CCN(CC)C(=O)Cn1cnc2c1c(=O)n(C)c(=O)n2C
  0.04	i
16: CC(=O)NCCc1c(C)n(Cc2ccccc2)c2ccccc12
  1.4	i
17: COc1ccc(NC(=O)CSc2nnc(NC(=O)CN3CCOCC3)s2)cc1
  -1.5	i
18: COc1cc(/C=C2\SC(=S)N(NC(=O)c3ccccc3O)C2=O)ccc1O
  1.8	i
19: CCSc1nc2sc3c(c2c(=O)n1-c1ccccc1C)CCN(C)C3
  1.5	i
20: CC1CCCCN1C(=O)CSc1nnc(CSc2ncccn2)n1C (stereo not drawn)
  2.1	i
21: O=C(Cn1c(=O)oc2cc(S(=O)(=O)NCc3ccccc3)ccc21)N1CCCC1
  -0.06	i
22: NS(=O)(=O)c1ccc(CCNC(=O)C(=O)NCC2OCCN2S(=O)(=O)c2ccc(Cl)cc2)cc1 (stereo not drawn)
  -0.28	i
23: O=C(CCS(=O)(=O)c1cccs1)Nc1ccc(C(=O)NC2CCCC2)cc1
  0.35	i
24: COC(=O)Cc1[nH]nc2c1C1(C(=O)N(Cc3ccccc3)c3ccccc31)C(C#N)=C(N)O2 (stereo not drawn)
  -0.69	i
25: O=C(N=C1SC2CS(=O)(=O)CC2N1c1ccccc1Cl)C1CCCO1 (stereo not drawn)
  -0.22	i
26: CN1CCC(=O)N([C@H](CSc2ccccc2)c2ccccc2)CC1
  0.3	i
27: CCOc1ccc2nc3ccc4[nH]onc4c3c2c1
  0.98	i
28: CC1=C(C(=O)OC(C)C)C(c2ccncc2)n2ncnc2N1 (stereo not drawn)
  -1.4	i
29: Cc1nc(CSc2ccc(Cl)cc2)cc(NCc2ccccc2)n1
  0.32*	-5.7*
30: N#Cc1ccc(Cn2c(-c3ccc(F)cc3)noc2=O)cc1
  2.2	i
31: COc1ccc(S(=O)(=O)N2CCCC(C(=O)N3CCCCCC3)C2)cc1 (stereo not drawn)
  -0.61	i
32: Cc1cc(NCCOCCO)n2c(nc3ccccc32)c1C#N
  -1.7	i
33: Cc1ccc(C)c(NC(=S)NCCSc2ccc(Cl)cc2)c1
  1.1	i
34: O=c1[nH]c(-c2ccccn2)nc2ccccc12
  -0.12	i
35: COc1cccc(N2CCN(C(=O)CSc3ccc(F)cc3)CC2)c1
  -0.28	i
36: Cc1cccc(-n2c(SCc3ccc([N+](=O)[O-])cc3)nnc2-c2c[nH]c3ccccc23)c1
  -0.12	i
37: Cc1ccsc1/C=N/NC(=O)CN1CCN(S(=O)(=O)c2ccc(Br)cc2)CC1
  0.79	i
38: COc1cccc(NC(=S)NN=C2CCCCCC2)c1
  -1.9	i
39: CCCCNC(=O)N1CCc2[nH]c3ccccc3c2C1
  1.4	i
40: CCSc1ncc(Cl)c(C(=O)Nc2cc(C)ccc2C)n1
  0.61	i
41: Cc1ccc(/C=C2\SC(=S)N(CCCC(=O)Nc3ccccc3C(=O)O)C2=O)cc1
  1.3	i
42: CCN1CCN(S(=O)(=O)c2ccc(Cl)c(C(=O)N(C)C(c3ccccc3)c3ccccc3)c2)CC1
  -1.9	i
43: N#Cc1c(-c2ccc(F)cc2)noc1N
  -0.43	i
44: CCc1ccc(NC(=O)/C(C#N)=C/c2cc3ccc(C)cc3nc2N2CCOCC2)cc1
  1.6	i
45: COC(=O)c1ccc(C(=O)NCCCCO)cc1
  0.18	i
46: NCCCCCC(=O)Nc1ccncc1
  -1.3	i
47: CCOC(=O)N1CCN(c2nnc(-c3ccccc3)c3ccccc23)CC1
  1.1	i
48: COc1ccc(CNC(=O)c2csnn2)cc1
  -0.36	i
49: COc1ccc(-c2noc(N3CCC(C(=O)NCCCN4CCCCC4)CC3)n2)cc1
  0.46	i
50: O=C(Cn1cc([N+](=O)[O-])cn1)Nc1nccs1
  -0.98	i
51: O=C(Cc1ccccc1)NCC(=O)Nc1ccccc1Br
  -0.52	i
52: O=C(c1noc2c1CCCC2)N1CCc2ccccc2C1
  0.15	i
53: Cn1c(Cl)c(/C=N/OC(=O)c2ccccc2Cl)c2ccccc21
  -2.2	i
54: COc1ccc2c(-c3ccccc3)cc(SC(C)C(N)=O)nc2c1 (stereo not drawn)
  -2.9	i
55: O=C1CC(c2ccccc2)CC(O)=C1C=NCCc1ccccc1 (stereo not drawn)
  -0.08	i
56: Cc1ccc(OCC(=O)Nc2ccc(N3CCN(S(C)(=O)=O)CC3)cc2)c(C)c1
  0.34	i
57: CCOC(=O)c1ccc(N2C(=O)CC(N3CCC(O)(c4ccc(Cl)cc4)CC3)C2=O)cc1 (stereo not drawn)
  0.76	i
58: CC(=O)NC(Cc1ccc(C)cc1)C(=O)NC1CCN(C(=O)c2cnccn2)CC1 (stereo not drawn)
  -0.1	i
59: COc1ccc(CC(=O)NNC(=O)c2cccnc2)cc1OC
  -0.17	i
60: NS(=O)(=O)c1ccc(CCNC(=O)CNC(=O)COc2ccccc2)cc1
  -1	i

Next structures
Results follow in this order: KCNQ2 inh baseline	KCNQ2 inh
61: COc1cccc(NC(=O)CCCCCn2nnc3ccccc3c2=O)c1
  0.1	i
62: [O-][n+]1c2c(nn1-c1ccccc1)/C(=N/O)CCC2
  -1.4	i
63: CCc1nnc(NC(=O)CSc2nnc3scc(-c4ccc(C)cc4)n23)s1
  2.2	i
64: Cc1ccc(N=Nc2ccc(O)cc2)c(Br)c1
  -0.11*	-5.7*
65: CCOc1ccccc1NC(=O)COc1ccc2ccc(=O)oc2c1
  2.3	i
66: CCCCC(=O)Nc1cc(NC(=O)CCCC)cc(C(=O)O)c1
  -0.07	i
67: CCCOc1ccc(-c2c(C(=O)N/N=C/c3ccco3)nnn2-c2nonc2N)cc1
  0.56	i
68: CCOc1cc2[nH]c(=S)n(CCCC(=O)NCc3ccco3)c(=O)c2cc1OCC
  -0.36	i
69: CC(OC(=O)c1cc(S(=O)(=O)Nc2ccc(F)cc2)ccc1Cl)C(=O)Nc1ccc2c(c1)OCCO2 (stereo not drawn)
  0.58	i
70: CCOc1ccc(NC(=S)N(Cc2ccc(Cl)cc2)Cc2ccco2)cc1
  1.6	i
71: COC(=O)CC1C(=O)NCCN1C(=O)CSc1nc2ccccc2s1 (stereo not drawn)
  2.4	i
72: Cc1[nH]c2ccc(C(=O)N3CCN(c4cccc(Cl)c4)CC3)cc2c1C
  2.2*	-6.2*
73: CC(C)C(=O)Nc1ccccc1Cc1ccccc1
  1.4	i
74: CCN(CC)C1=CC(=O)OC12CCCCC2
  -0.67	i
75: COC(=O)c1c(NC(=O)CN2CCN(c3cccc(Cl)c3)CC2)sc(C)c1C
  -0.85	i
76: COc1ccc(CCN2C(=O)CC(Cc3cccc(C)c3)C2=O)cc1OC (stereo not drawn)
  0.08	i
77: CN(C(=O)c1cccc(C(F)(F)F)c1)C1CCCc2ccccc21 (stereo not drawn)
  -1.6*	-5.8*
78: COc1ccccc1Nc1ncc(C(=O)N2CCN(Cc3ccc(OC)c(OC)c3OC)CC2)c2ccccc12
  0.03	i
79: O=C(Nc1c2c(nn1-c1ccc(F)cc1)CS(=O)(=O)C2)C12CC3CC(CC(C3)C1)C2
  0.71	i
80: CCCn1nc(C(=O)NC2CCCc3ccccc32)c2ccccc2c1=O (stereo not drawn)
  -0.13	i
81: Cc1c(C(=O)N2CCCC2)nnn1-c1nonc1N
  -0.59	i
82: O=C(c1cccc([N+](=O)[O-])c1)N1CCN(c2ncccn2)CC1
  0.27	i
83: CCC(C)Cn1c(C(C)O)nc2ccccc21 (stereo not drawn)
  0.18	i
84: CC(=O)c1ccc(S(=O)(=O)N2CCCC2)cc1
  -0.55	i
85: COc1ccc(C(C(O)C(=O)c2c[nH]c3ccccc23)N2CCN(c3ccccc3)CC2)cc1 (stereo not drawn)
  -0.17	i
86: COc1ccc(/C=N/Nc2ncnc3sc(C)c(C)c23)cc1
  0.45	i
87: Cn1c(-c2ccc(Br)o2)nc2cc(Br)ccc21
  -1	i
88: CC(=O)Nc1ccc(S(=O)(=O)N2CCC(n3cnc4cc(F)ccc43)CC2)cc1
  0.23	i
89: CCCN1CCN(CCCNC(=O)CN2C(=O)COc3ccccc32)CC1
  0.15	i
90: Cc1ccc(NN=C2c3ccccc3-c3ccccc32)cc1
  1.4	i
91: c1ccc(CSc2nnc([C@@H]3CCCN3)o2)cc1
  1.6	i
92: CCCCNC(=O)CN1C(=O)NC(CCc2ccccc2)C1=O (stereo not drawn)
  -0.6	i
93: CC(C)CCNC(=O)C1C2C=CC3(CN(Cc4ccccc4Cl)C(=O)C13)O2 (stereo not drawn)
  0.65	i
94: COC(=O)C1=C(Nc2ccc(C)cc2)C=C(C)C(C(=O)OC)C1c1ccc(OC)cc1 (stereo not drawn)
  0.01	i
95: CCN1C(=O)C(O)(CC(=O)C(C)(C)C)c2cc(Br)ccc21 (stereo not drawn)
  2.9	i
96: O=C1NC(=O)/C(=C\c2ccc(N3CCOCC3)o2)N1
  2	i
97: CCCc1nc2c([nH]1)c(=O)n(C)c(=O)n2C
  -1.3	i
98: CCOC(=O)C1=C(CSc2nc3c(cc2C#N)CN(C)CC3)OC(N)=C(C#N)C1c1ccncc1 (stereo not drawn)
  -0.37	i
99: COC(=O)CNC(c1ccccc1)c1cc(Br)ccc1NC(C)=O (stereo not drawn)
  2.2	i
100: CCC(C)[C@H](NC(=O)NC1CCCc2ccccc21)C(=O)O (stereo partly drawn)
  1.6	i

The list goes on; it opens with the three that closed the last part.
Results follow in this order: KCNQ2 inh baseline	KCNQ2 inh
98: CCOC(=O)C1=C(CSc2nc3c(cc2C#N)CN(C)CC3)OC(N)=C(C#N)C1c1ccncc1 (stereo not drawn)
  -0.37	i
99: COC(=O)CNC(c1ccccc1)c1cc(Br)ccc1NC(C)=O (stereo not drawn)
  2.2	i
100: CCC(C)[C@H](NC(=O)NC1CCCc2ccccc21)C(=O)O (stereo partly drawn)
  1.6	i
101: CCOc1cccc(/C=C(\C#N)C(=O)NC2CC2)c1
  -0.77	i
102: Cc1cc(C)n(-c2n[nH]c(=O)c3ccccc23)n1
  0.02	i
103: Cc1cc(C)c(C)c(S(=O)(=O)N2CCN(c3ncnc4sc(C)c(C)c34)CC2)c1C
  -0.25	i
104: COc1cc(C(=O)OCC(=O)c2cc(C)n(C)c2C)cc(OC)c1OC
  -1.6	i
105: O=C(c1cc(-c2ccc(Cl)cc2Cl)on1)N1CCN(C(=O)c2ccco2)CC1
  0.22	i
106: O=C(/C=C/c1ccc(Cl)cc1Cl)N(Cc1ccccc1)C1CCS(=O)(=O)C1 (stereo not drawn)
  -0.38	i
107: COc1ccc(C)cc1NC(=O)CCN1CCCC1
  -0.32	i
108: COC(=O)CNC(=O)c1cccc(-c2ccc(OC)cc2)c1
  -2.2	i
109: CN(C)/C=N/N(C)c1ncccc1[N+](=O)[O-]
  0.8	i
110: CCOC(=O)c1sc(NC(=O)CN2C(=O)NC3(CC(C)CC(C)(C)C3)C2=O)cc1C (stereo not drawn)
  0.08	i
111: O=C(NCc1ccccc1)c1c[nH]c2cc3c(cc2c1=O)OCCO3
  -0.28	i
112: N#CCCn1cc(C(=O)NCc2ccccc2)c(-c2cccs2)n1
  -0.54	i
113: O=S(=O)(NCCN1CCCC1)c1ccc(C(F)(F)F)cc1
  1.4	i
114: O=C(Nc1ccccc1)C1CC(=O)n2ncnc2N1 (stereo not drawn)
  -0.56	i
115: S=C(Nc1ccc(Cl)cc1)NC1CC2CCCC(C1)N2C1CCCC1 (stereo not drawn)
  6	i
116: Cc1ccccc1NC(=O)c1ccc(-c2ccc(Cl)cc2Cl)o1
  -0.07	i
117: CSCCC1NC(=O)N(CC(=O)Nc2ccc(Br)cc2Br)C1=O (stereo not drawn)
  -0.24	i

Reprinted, nos. 101–107
Results follow in this order: KCNQ2 inh baseline	KCNQ2 inh
101: CCOc1cccc(/C=C(\C#N)C(=O)NC2CC2)c1
  -0.77	i
102: Cc1cc(C)n(-c2n[nH]c(=O)c3ccccc23)n1
  0.02	i
103: Cc1cc(C)c(C)c(S(=O)(=O)N2CCN(c3ncnc4sc(C)c(C)c34)CC2)c1C
  -0.25	i
104: COc1cc(C(=O)OCC(=O)c2cc(C)n(C)c2C)cc(OC)c1OC
  -1.6	i
105: O=C(c1cc(-c2ccc(Cl)cc2Cl)on1)N1CCN(C(=O)c2ccco2)CC1
  0.22	i
106: O=C(/C=C/c1ccc(Cl)cc1Cl)N(Cc1ccccc1)C1CCS(=O)(=O)C1 (stereo not drawn)
  -0.38	i
107: COc1ccc(C)cc1NC(=O)CCN1CCCC1
  -0.32	i

The list is partial, so the mix of outcomes need not match the whole.
